# Sa helicase inh = inhibitors of S. aureus replicative helicase, primary screen, biochemical, fluorescence unwinding readout; replicative DNA helicase (DnaC/DnaB), Staphylococcus aureus; purified S. aureus helicase, fluorescence unwinding assay; about half of the hits fall short of the stated cut; inhibition, %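 (tested at about 80 µM)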; 120,000 compounds, 0.05% hits;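 active means both duplicates at 50% or more, or one of them with a favoured structure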;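 further: 0% = mean of negative control wells and 100% = mean of positive control wells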
# MgrA-DNA mod = S. aureus MgrA activity modulators, primary screen, biochemical, S. aureus Newman, fluorescence polarization | MgrA-DNA binding | 84,000 compounds, 0.13% hits | inhibition, %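 (about 10 µg/mL by stock and volumes)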;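 active means above 50% in either of two replicates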;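 further: 0% = protein plus DNA without compound and 100% = DNA alone without protein; higher means less MgrA bound to DNA so lower polarization; one replicate is shown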
# Starred values were filed as active, the others as inactive; / = not tested or not shown. Not all compounds are listed, so the mix of outcomes need not match the whole.
# Every second line gives: Sa helicase inh | MgrA-DNA mod
- O=C(Cn1cnc2ccccc21)N/N=C1/CCSc2ccc(F)cc21
  7 | /
- COc1cc(S(=O)(=O)Nc2ccccc2NC(=O)CN2CCOCC2)c(OC)cc1NC(C)=O
  18 | 1.1
- COc1ccc(CNc2nonc2C)cc1
  11 | -1.9
- COC(=O)c1cc(C)nc(Sc2ccccc2N)n1
  / | 2.2
- Nc1c(C(=O)c2ccccc2)sc2nsc(SCCN3CCCC3)c12
  / | 4.1
- O=C(Nc1cc(OCC(F)(F)F)cc(OCC(F)(F)C(F)F)c1)c1ccco1
  -12 | 0.8
- O=C(O)c1cc2ccccc2c(=O)s1
  -23 | /
- CC(/C(O)=C(\C#N)c1nc2ccccc2[nH]1)N1C(=O)c2ccccc2C1=O (stereo not drawn)
  3 | 0.7
- Cc1onc(-c2c(Cl)cccc2Cl)c1C(=O)c1ccccc1
  / | -1.7
- O=C(Cn1ncc(Cl)c(Cl)c1=O)N1CCN(Cc2ccccc2)CC1
  1 | /
- CCOc1cc(CNn2cnnc2)ccc1OCC(=O)NC1CCCCC1
  -2 | -1.5
- Cc1csc(C(C#N)C(=O)CSc2nnnn2C2CCCC2)n1 (stereo not drawn)
  -7 | /
- Cc1ccc(-c2nc3ncccn3c2NC(=O)C2CC2)cc1
  17 | -5.5
- CCc1[nH]nc2c1C(c1ccc(F)c(Oc3ccccc3)c1)C(C#N)=C(N)O2 (stereo not drawn)
  -4 | 2.8
- O=c1c2ccccc2ncn1Cc1ccc(F)cc1
  17 | -7.6
- O=c1c(-c2ccc(Oc3ccccc3)cc2)[n+]([O-])c2ccccc2n1O
  15 | 5.0
- Cn1c(=O)n(C)c2cc(S(=O)(=O)N3CCCC3)ccc21
  6 | 0.6
- O=C1Nc2ccccc2/C1=C/C(=O)c1ccc(Cl)cc1
  -10 | -0.9
- CC1CCCN(S(=O)(=O)c2ccc(S(=O)(=O)N(Cc3cccs3)Cc3cccs3)cc2)C1 (stereo not drawn)
  -1 | 1.7
- Cn1nnc2cc(C(=O)N3CCSCC3)ccc21
  5 | -0.6
- CCc1ccc(NC(=O)N2CCn3c(C)ccc3C2CC)cc1 (stereo not drawn)
  5 | 2.2
- Cc1nn(-c2ccccc2)nc1C(=O)N1CCN(S(=O)(=O)c2ccc3c(c2)OCCCO3)CC1
  13 | /
- O=C(CCS(=O)(=O)c1nc(-c2ccc3c(c2)OCO3)cc(C(F)(F)F)n1)ON=C1CCCCC1
  -10 | /
- O=C(NCCc1ccccc1)c1ccc2nonc2c1
  / | -1.1
- COc1cc(-c2nc3cc(OC(C)=O)ccc3c(=O)o2)cc(OC)c1OC
  35 | /
- CC(C)(C)NC(=O)COc1ccc(CNC2C3CC4CC(C3)CC2C4)cc1 (stereo not drawn)
  8 | 0.2
- N#C/C(=C\c1ccc(SCc2ccc(Cl)cc2)o1)C(=O)NCc1ccco1
  -58 | /
- CCOC(=O)/C(C#N)=C/Nc1ccn(C)n1
  8 | /
- Cc1ccccc1CSCc1ccc(C(=O)N2CCNc3ccccc3C2)o1
  7 | -0.2
- CCN(CC)S(=O)(=O)c1cc(C(=O)NCCc2ccc(Cl)cc2)ccc1F
  9 | -0.4
- c1ccc(OCCOc2ccccc2-c2nnco2)cc1
  6 | /
- OCCN=C(c1ccc(Cl)cc1)N1CCN(C(=NCCO)c2ccc(Cl)cc2)CC1
  5 | -0.7
- CC(C)(C)c1ccc(NC(=O)N2CCCN(c3ccc([N+](=O)[O-])cn3)CC2)cc1
  / | 3.8
- NC(=O)C1CCN(c2nccc(C(F)(F)F)n2)CC1
  / | 1.8
- CC1=CC2(O)OCCN(Cc3ccccc3)C2=CC1=O (stereo not drawn)
  11 | /
- CN(C)S(=O)(=O)N1CCNCC1
  4 | -0.8
- O=C(O)CSCC(=O)c1c[nH]c2ccccc12
  -18 | /
- CCn1nnc2cc(C(=O)OCC(=O)Nc3cc(OC)cc(OC)c3)ccc21
  2 | /
- COc1ccc(C2C(=O)N(C3CCCC3)CC(=O)N2Cc2cccs2)cc1 (stereo not drawn)
  -1 | /
- COC(=O)c1ccc(CSc2cc(C)c3ccccc3n2)o1
  1 | /
- Cc1cc(OCCN2CCOCC2)nc(N2CCOCC2)n1
  2 | -0.5
- CCOC(=O)c1cc(-c2ccc(S(=O)(=O)NC3CC3)s2)on1
  10 | /
- O=C(CCS(=O)(=O)c1ccc2c(c1)CCN2C(=O)C1CC1)NCc1ccccc1
  20 | /
- CCOC(=O)c1ccsc1NC(=O)/C=C/c1cccs1
  17 | /
- COc1cc(-c2nc3ccccc3[nH]2)cc(OC)c1OC
  -9 | /
- COc1cccc(/C=N/n2c(-c3ccco3)csc2=NC2CCCCC2)c1O
  2 | /
- O=C(NC1CC1)c1ccc2c(c1)N(Cc1ccccc1)C(=O)c1ccccc1S2=O (stereo not drawn)
  26 | /
- O=C(NC1CC1)C1CCCN1S(=O)(=O)c1ccccc1 (stereo not drawn)
  7 | -2.5
- O=C(O)c1ccc(CSc2ccc(Cl)cc2)o1
  / | 1.2
- CN1C(=O)/C(=C/C=C2/Sc3ccccc3N2CCO)SC1=S
  -33 | 5.0
- CC(C)CCNC(=O)c1sc2ccc(S(=O)(=O)N3CCCCC3)cc2c1N
  1 | -0.2
- N#Cc1ccc(CSc2nc(-c3ccccc3)cc(=O)[nH]2)cc1
  15 | /
- CSC(C)/C(=N/O)c1ccccc1 (stereo not drawn)
  / | -2.2
- O=S(=O)(c1ccc(-c2csc(Nc3ccc(Br)cc3)n2)cc1)N1CCCCC1
  -4 | 1.5
- CCOC(=O)C1CCCN(c2nc3c(C)cc(C)cc3s2)C1 (stereo not drawn)
  0 | /
- CCOC(=O)C1=C(C)NC(C)=C(C(=O)OCC)C1C(=O)OCC(=O)NCc1ccccc1OC
  -14 | /
- c1ccc(-c2nc(NC3CC3)nc(-n3ccnc3)n2)cc1
  -2 | -1.6
- COC(=O)C(C)c1ccc(C(=O)c2cccs2)cc1 (stereo not drawn)
  / | 1.2
- O=C(Nc1ccccc1)c1cccn(OCc2ccccc2)c1=O
  -6 | /
- COC(=O)c1ccc(Oc2ccc(C3SCCS3)cc2)o1
  / | -0.2

# A stretch taken from the entries so far:
# Every second line gives: Sa helicase inh | MgrA-DNA mod
- O=C(O)CSCC(=O)c1c[nH]c2ccccc12
  -18 | /
- CCn1nnc2cc(C(=O)OCC(=O)Nc3cc(OC)cc(OC)c3)ccc21
  2 | /
- COc1ccc(C2C(=O)N(C3CCCC3)CC(=O)N2Cc2cccs2)cc1 (stereo not drawn)
  -1 | /
- COC(=O)c1ccc(CSc2cc(C)c3ccccc3n2)o1
  1 | /
- Cc1cc(OCCN2CCOCC2)nc(N2CCOCC2)n1
  2 | -0.5
- CCOC(=O)c1cc(-c2ccc(S(=O)(=O)NC3CC3)s2)on1
  10 | /
- O=C(CCS(=O)(=O)c1ccc2c(c1)CCN2C(=O)C1CC1)NCc1ccccc1
  20 | /

# Additional structures follow.
# Every second line gives: Sa helicase inh | MgrA-DNA mod
- O=C(CSc1n[nH]c(=O)n1Cc1ccccc1)NC(=O)Cc1ccccc1
  18 | /
- O=C(NCc1cc2ccccc2s1)c1ccc(N2CCOCC2)nc1
  / | 1.1
- Cc1cc(C)cc(NC(=O)c2ocnc2C)c1
  22 | /
- Nc1nc(COC(=O)c2cc(S(=O)(=O)NC3CC3)ccc2Br)nc(Nc2ccccc2)n1
  25 | /
- N#C/C(=C/Nc1ccccc1)c1ccsc1
  / | -0.9
- CS(=O)(=O)c1nncn1-c1ccccc1
  1 | /
- COc1ccc(Oc2c(F)c(F)nc(F)c2Cl)cc1
  10 | 0.4
- c1ccc(NN=C2CCCCCCC2)cc1
  2 | 1.7
- C=CCC(CC=C)(C(N)=O)c1ccccc1
  7 | 0.3
- Cc1oc(-c2ccccc2)cc1C(=O)NCc1ccncc1
  / | 0.2
- COc1ccc2c(c1)nc(NCCCO)n2Cc1ccccc1
  -9 | /
- CC(C)(C)C(=O)NC1CCNCC1
  6 | -17
- CCOC(=O)c1cc(-c2ccc(S(=O)(=O)NCC3CCCN3CC)s2)on1 (stereo not drawn)
  -20 | /
- CC(Sc1nc2c([nH]1)c(=O)n(C)c(=O)n2C)C(=O)O (stereo not drawn)
  / | 8.0
- CC(Sc1n[nH]c(-c2cccs2)n1)C(=O)Nc1ccc(C(N)=O)cc1 (stereo not drawn)
  -4 | /
- Cc1cccc(-c2noc(-c3ccno3)n2)c1
  / | -2.3
- CCCCn1c(N)c(C(=S)NC(=O)CC(C)C)c(=O)n(C)c1=O
  26 | /
- CC(C)Oc1cccc(-c2nc(-c3ccccn3)no2)c1
  8 | 2.2
- O=S(=O)(N=Nc1c(O)n(CO)c2ccccc12)c1ccc(Br)cc1
  -13 | /
- CC(=O)NC1=NN(C(C)=O)C2(S1)C(=O)Nc1ccccc12 (stereo not drawn)
  -2 | -0.1
- CCN(CC)CCNc1cc(-c2cccs2)nc2ccccc12
  / | 3.2
- N#Cc1c(Cl)cccc1I
  -18 | /
- COC(=O)c1sc(N)c(C(=O)OC)c1CSc1nc2sc3c(c2c(=O)n1C)CCC3
  6 | /
- N#Cc1cccc(C(=O)OCC(=O)NC2CC2)c1
  9 | /
- CCCN1C(=O)c2ccc(C(=O)O)cc2C1=O
  13 | -0.5
- CCCn1c(SCC(=O)NC(C)(C#N)C(C)C)n[nH]c1=O (stereo not drawn)
  -3 | /
- O=C(O)c1cc2ccccc2c(=O)[nH]1
  24 | 13
- Cc1onc(-c2ccccc2)c1N
  / | 0.0
- O=C(/C=C/c1cccs1)Oc1ccc(Cl)cc1
  / | -1.4
- CSc1ncccc1C(=O)Nc1ccc2c(C)cc(=O)oc2c1
  3 | /
- CCC(C)c1ccc(NCN2C(=O)c3ccccc3C2=O)cc1 (stereo not drawn)
  / | 0.2
- OC(COCc1ccccc1)Cn1c2ccccc2c2ccccc21 (stereo not drawn)
  / | -0.8
- Cc1cc(Cl)nc(SCC(=O)c2ccccc2)n1
  14 | -2.0
- COc1cccc(COC(=O)c2nc3nc(C)cc(C)n3n2)c1
  -4 | /
- O=C(Nc1cccc(O)c1)c1cc(-c2ccc3c(c2)OCO3)on1
  11 | /
- Cc1ccc(NC(=O)C2CC2C)c(Cl)c1 (stereo not drawn)
  2 | /
- COc1cccc(NC(=O)c2cccc3c2SCCC3=O)c1
  18 | /
- Cc1sc2ncn3c(=O)c4ccccc4nc3c2c1C
  -1 | /
- COC(=O)/C(=C\c1cccnc1)NC(=O)c1ccc(OCc2ccccc2)cc1
  9 | /
- O=C(c1cccc(S(=O)(=O)N2CCOCC2)c1)N1CCSC1=NCc1ccccc1
  11 | /
- CC(C)N1CCC(NS(=O)(=O)c2c(F)cc(F)cc2Br)CC1
  -5 | /
- Cc1ccc2scc(CC#N)c2c1
  / | -2.9
- O=S1(=O)CC2N=C(N/N=C/c3ccccc3)SC2C1 (stereo not drawn)
  -25 | /
- O=C(Cn1nc(-c2ccccc2)ccc1=O)NCCCN1CCCC1
  5 | 1.2
- CN=C(NC#N)NCCSCC1N=CN=C1C (stereo not drawn)
  / | 2.8
- CCOc1ccc(C2C(C#N)=C(SCc3ccccc3)NC(=O)C2C(=O)OC)cc1 (stereo not drawn)
  / | -1.8
- c1ccc(C2CC3CCCCC3CO2)cc1 (stereo not drawn)
  -3 | 2.0
- CC(Oc1ccc(/C=c2/sc3nc4ccccc4n3c2=O)cc1)C(=O)O (stereo not drawn)
  24 | /
- Cc1ccsc1C(=O)OCC(=O)c1ccccc1
  7 | -1.2
- CCOC(=O)c1cnc2ccc(C(=O)OC)cc2c1NCCCO
  -11 | /
- O=C(Nc1nc(-c2ccccc2)cs1)C1CC1
  -9 | -1.1
- N#CC(C#N)=CNc1ccncc1
  -17 | /
- CC(NC(=O)C12CC3CC(CC(C3)C1)C2)C(c1ccccc1)N1CCN(C)CC1 (stereo not drawn)
  17 | /
- COc1cccc(/C=N/n2cnc3cc(C)c(C)cc32)c1OC
  18 | 0.1
- CCSc1nc2ccccc2n1CCOc1ccccc1
  -11 | /
- CC12CN(C(=O)c3ccccc3)CC(C)(CN(C(=O)c3ccccc3)C1)C2=O
  9 | -0.3
- Cc1ccc(N2C(=O)CSC23C(=O)Nc2ccccc23)cc1Cl (stereo not drawn)
  / | 0.3
- Cn1nc(C(=O)N(Cc2ccco2)C2CCCCC2)c2c1-c1ccccc1SC2
  1 | 0.2
- Cc1ccc(C)[n+](C)c1
  11 | 1.9
- O=C(c1ccccc1)c1cccn1S(=O)(=O)c1cc(C(F)(F)F)cc(C(F)(F)F)c1
  / | 0.9

# (next part)
# Every second line gives: Sa helicase inh | MgrA-DNA mod
- COc1ccc(NC(=O)CC(C)NCc2ccc(CN3CCCC3)cc2)cc1 (stereo not drawn)
  -8 | /
- O=C(c1cn(Cc2ccccc2)nc1-c1ccccc1)N1CCN(CCO)CC1
  -9 | /
- CC(=O)Nc1sc2c(c1CN1CCCC1)CCCC2
  -5 | /
- COc1ccccc1C(C)NCC(=O)Nc1ccccc1C(=O)NC1CC1 (stereo not drawn)
  6 | /
- CC(Nc1ncnc2c1oc1ccccc12)C1CC2CCC1C2 (stereo not drawn)
  11 | /
- N=c1n(CCO)c2ccccc2n1Cc1ccc(Cl)cc1
  4 | 3.0
- CCOC(=O)CN1C(=O)C2C3c4ccccc4C(c4ccccc43)C2C1=O (stereo not drawn)
  9 | /

# Looked up above:
# Under Sa helicase inh, `COc1ccccc1C(C)NCC(=O)Nc1ccccc1C(=O)NC1CC1` (stereo not drawn) shows 6
# Under Sa helicase inh, `CCOC(=O)CN1C(=O)C2C3c4ccccc4C(c4ccccc43)C2C1=O` (stereo not drawn) shows 9
# Under Sa helicase inh, `N=c1n(CCO)c2ccccc2n1Cc1ccc(Cl)cc1` shows 4
# Under Sa helicase inh, `CC(=O)Nc1sc2c(c1CN1CCCC1)CCCC2` shows -5
# Under Sa helicase inh, `O=C(c1cn(Cc2ccccc2)nc1-c1ccccc1)N1CCN(CCO)CC1` shows -9
# Under Sa helicase inh, `CC(Nc1ncnc2c1oc1ccccc12)C1CC2CCC1C2` (stereo not drawn) shows 11

# Assay outcomes deposited in PubChem by ICCB-Longwood Screening Facility, Harvard Medical School.
